NPYLR7 agonist: activates Aedes aegypti NPYLR7 receptor | activation, % at 10 µM | hit rate 0.15% among 270,000 | HEK293T NPYLR7/Galpha15, GCaMP6s calcium fluorescence; in the data active = activation above about 40%;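 note: 0% = vehicle and 100% = reference agonist at the receptor; some compounds past the cut are filed as inactive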
NPYLR7 agonist max-min: further read-out of NPYLR7 agonist, marked with its call; activation, %; measured here: Max-Min RFU normalised activation; some inactives read as strong as hits;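 span of the calcium signal over five minutes; 0% = vehicle and 100% = native peptide agonist; compound fluorescence can raise it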
* = called active by the depositor; & = joins results of further samples. This is a subset, so the mix of outcomes need not match the whole.

Under each structure: NPYLR7 agonist, NPYLR7 agonist max-min
- O=C(CN1CCC(c2nnc3n2CCC3)CC1)Nc1ccccc1C(=O)NC1CC1
→ 9, 1
- O=C(NCC(CO)Cc1ccccc1F)c1ccnc(Cl)c1 (stereo not drawn)
→ 3, 1
- CCOC(=O)C1=C(C)N=c2s/c(=C\c3ccc(C)o3)c(=O)n2C1c1ccccc1 (stereo not drawn)
→ -1, -6
- COc1ccc(-n2c(SCc3ccc(C(=O)O)cc3)nnc2-c2ccccc2[N+](=O)[O-])cc1
→ 1, -3
- CN(C)c1ccc(/C=C2\N=C(c3ccco3)OC2=O)cc1
→ -1, -6
- c1cnc2c(-n3nc(C4CC4)nc3-c3csnn3)cccc2c1
→ 11, -4
- CCOC(=O)C1(CCCc2ccccc2)CCN(C(=O)Cc2csc(C)n2)CC1
→ 5, 1
- O=C(Nc1cc(Cl)ccc1O)c1cnn2c1NC(c1cccs1)CC2C(F)(F)F (stereo not drawn)
→ -4, -8
- CC1C(=O)N(c2cccc(C(F)(F)F)c2)CCN1C(=O)c1ccc(F)cc1 (stereo not drawn)
→ 29, 31
- COc1cccc(-n2c(SCC(N)=O)nc3c([nH]c4ccccc43)c2=O)c1
→ 1, 47
- Cc1cccc(-c2nc(SCC(=O)Nc3ccc(C(N)=O)cc3)c3c(=O)n(C)c(=O)n(C)c3n2)c1
→ -4, -8
- CCOc1ccc(C(c2c(O)cc(C)[nH]c2=O)c2c(O)cc(C)[nH]c2=O)cc1OC
→ 7, 12
- Cc1ccc(C(=O)NC(C(=O)N2CCOCC2)C2CCN(C(=O)Nc3cccc(Cl)c3)CC2)cc1 (stereo not drawn)
→ 3, 8
- Cc1cc(C(=O)N/N=C\c2ccccn2)n[nH]1
→ -5, -12
- Cc1cccc(NC(=O)C(C#N)C(=O)C2CCCC2)c1 (stereo not drawn)
→ 1, -1
- COc1ccccc1CCNC(=O)CN1C(=O)c2ccccc2S1(=O)=O
→ 14, 7
- Cc1ccccc1Cn1c(C(=O)N2CCN(C(=O)C3C[C@H]3c3ccccc3)C(C)C2)cc2ccsc21 (stereo partly drawn)
→ 0, 5
- c1ccc(N2CCN(CCCOc3ccc4c(c3)OCO4)CC2)cc1
→ -8, -12
- O=C(c1ccc(N2CCCCC2=O)cc1)N1CCN(S(=O)(=O)c2ccc3c(c2)OCCO3)CC1
→ 7, 3
- O=C(c1scc2c1OCCO2)N1CCc2onc(-c3cccc(F)c3)c2C1
→ -1, -5
- CCOC(=O)c1c(NC(=O)CN2CCCC2C(=O)N(C)C)sc(C)c1-c1ccc(C)cc1 (stereo not drawn)
→ 9, 4
- C=CCNC(CC(=O)Nc1cc(C)ccc1O)C(=O)O (stereo not drawn)
→ 1, 1
- CCCNC(=O)C(CC)n1nc(C)n2c(cc3occc32)c1=O (stereo not drawn)
→ -12, -10
- O=C(CCc1cccc(F)c1)N1CCN(S(=O)(=O)c2ccc3c(c2)CCC3)CC1
→ -1, 14
- CCCOCCCNC(=O)c1ccc(-n2nc(C(=O)OCC)cc2-c2ccc(Cl)cc2)cc1
→ 3, -2
- COC(=O)c1ccc(-c2nc(CN3CCC(Oc4ccccc4F)CC3)c(C)o2)cc1
→ 6, 11
- COCCN(Cc1cccn1Cc1ccccc1)C(=O)CN(C(=O)c1cccc(Cl)c1)C1CCCCC1
→ 1, 9
- COc1cccc(NC(=O)N(CC(=O)N(CCc2ccc(OC)c(OC)c2)Cc2ccc(C)s2)C2CCCCC2)c1
→ 10, 14
- COc1ccc(NC(=O)NCCNc2nc(-c3ccccc3Cl)nc3ccccc23)cc1
→ 4, 15
- COCCN(Cc1cccc(OS(=O)(=O)c2cccc(C(F)(F)F)c2)c1)C(=O)c1ccccc1Br
→ 0, 11
- CNC(=O)[C@@H]1C[C@H]2CN(C)C(=O)c3cccc(c32)N1C(=O)c1ccco1
→ 0, 9
- COc1ncccc1-c1cc(C)ccc1N1CCOC1=O
→ 1, -1
- O=C(Nc1cccc(Cl)c1)c1cc2nc(-c3ccc(F)cc3)cc(C(F)(F)F)n2n1
→ -15, -21
- Cc1ccc(NC(=O)CSc2ncc(S(=O)(=O)c3ccc(C)c(Cl)c3)c(=O)[nH]2)cc1
→ 5, 4
- Cc1cc(N)n(C(=O)c2ccc(N3CCOCC3)cc2)n1
→ 6, 2
- CC(NC(=O)Cn1c(=O)oc2ccc(Cl)cc21)c1ccccc1 (stereo not drawn)
→ -2, 5
- O=C(Nc1ccc(Br)cc1)N1CCSC1c1cccc(F)c1 (stereo not drawn)
→ 17, 9
- CCOC(=O)N1CCC(N2CCC(Oc3ccccc3C(=O)N3CCCCC3)CC2)CC1
→ 14, 1
- Cc1[nH]c(=S)sc1CC(=O)Nc1ccc2c(c1)OCO2
→ 6, 6
- O=C1CN(C(=O)c2nn(Cc3ccccc3)c3c2CN(C(=O)CCc2cccs2)CC3)CCN1
→ -2, -2

Record cards, from the list above. Values in the order: NPYLR7 agonist | NPYLR7 agonist max-min
Entry for O=C1CN(C(=O)c2nn(Cc3ccccc3)c3c2CN(C(=O)CCc2cccs2)CC3)CCN1 → -2 | -2
Entry for O=C(c1ccc(N2CCCCC2=O)cc1)N1CCN(S(=O)(=O)c2ccc3c(c2)OCCO3)CC1 → 7 | 3

Continued:
Under each structure: NPYLR7 agonist, NPYLR7 agonist max-min
- CN(CCCNC(=O)c1cccnc1Nc1cc(Cl)cc(Cl)c1)c1ccccc1
→ -11, -16
- CCc1[nH]n(-c2ccc(Cl)c(Cl)c2)c(=O)c1C1=C(N(CC)CC)C(=O)N(c2ccccc2F)C1=O
→ 1, 5
- Cc1nc(-c2ccccc2)ncc1C(=O)N(C)CC1(CO)CCC1
→ -1, -2
- CC(C)Oc1cccc(F)c1-c1ccc(N)nc1
→ 3, 11
- CC(C)N(C(=O)Cn1c(=O)c2c(N3CCN(C(=O)C4CC4)CC3)ccnc2n(C)c1=O)C(C)C
→ 0, -1
- OC1CCCN(Cn2nc(CSc3nc4ccccc4s3)n(-c3ccccc3)c2=S)C1 (stereo not drawn)
→ 2, 3
- COc1ccc(/C=C/CN2CCC(C(=O)NC(c3ccc(Cl)cc3)c3ccccn3)CC2)cc1 (stereo not drawn)
→ 7, 9
- CCOC(=O)N1CCN(c2ccc(/C=C(\C#N)c3nc4ccccc4s3)o2)CC1
→ 5, 11
- COc1ccc(-c2cnc3ncnn3c2NCCCN(C)C)cc1
→ 1, -1
- O=C(/C=C/c1ccc(Cl)c(Cl)c1)n1cccn1
→ -13, -16
- CNS(=O)(=O)c1cc(C(=O)NCCc2ccccc2OC)n(C)c1
→ 3, 0
- Cc1cccc(SC2CCN(Cc3c(CO)cnc(C)c3O)CC2)c1
→ 6, 5
- COC(=O)C1=C(C)N(C2CCCCC2)C(=O)C1(NC(=O)c1ccccc1OC)C(F)(F)F (stereo not drawn)
→ -9, -13
- CCOC(=O)N1CCC(N2CCCC(CNC(=O)Cc3ccc(OC)cc3)C2)CC1 (stereo not drawn)
→ 2, 1
- Cc1nc(-c2ccc(Cl)c(Cl)c2)n(CC(=O)NC(C)(C)C)n1
→ 3&-25, -1&-22
- c1ccc(Cc2nnc(SCc3cccc4ccccc34)o2)cc1
→ 0, 13
- COc1ccc(F)cc1C(=O)C1CCCN(Cc2cccn2-c2cccnc2)C1 (stereo not drawn)
→ 3, 2
- CC(C)CN1C(=O)C2C3CC4C5(C)CCCC(C)(C(=O)O)C5CCC4(C=C3C(C)C)C2C1=O (stereo not drawn)
→ -12, -14
- CC(NC(=O)CS(=O)(=O)c1ccc(Cl)cc1)c1ccccc1F (stereo not drawn)
→ -3, -5
- O=C(c1cccc([N+](=O)[O-])c1)N1CCN(c2nc(-c3ccccc3Cl)nc3cc(Cl)ccc23)CC1
→ 24, 33

Single entries from above:
`Cc1cccc(-c2nc(SCC(=O)Nc3ccc(C(N)=O)cc3)c3c(=O)n(C)c(=O)n(C)c3n2)c1` @ NPYLR7 agonist max-min = -8
`CCOC(=O)c1c(NC(=O)CN2CCCC2C(=O)N(C)C)sc(C)c1-c1ccc(C)cc1` (stereo not drawn) @ NPYLR7 agonist max-min = 4
`CC(C)Oc1cccc(F)c1-c1ccc(N)nc1` @ NPYLR7 agonist = 3
`Cc1[nH]c(=S)sc1CC(=O)Nc1ccc2c(c1)OCO2` @ NPYLR7 agonist max-min = 6
`CCOc1ccc(C(c2c(O)cc(C)[nH]c2=O)c2c(O)cc(C)[nH]c2=O)cc1OC` @ NPYLR7 agonist = 7

(more compounds)
Under each structure: NPYLR7 agonist, NPYLR7 agonist max-min
- COc1ccc(Cl)cc1-c1cccc(-n2cncc2C(=O)NC(C)CCc2ccccc2)c1 (stereo not drawn)
→ 0, -4
- O=C(CN1CN(c2ccccc2)C2(CCN(S(=O)(=O)c3ccc(F)cc3)CC2)C1=O)NCC1CCCO1 (stereo not drawn)
→ 3, 10
- CCCCNC(=O)COc1ccc(C)cn1
→ 0, -1
- CC(C)(C)C(NC(=O)c1n[nH]c(=O)[nH]1)c1cccc(C(F)(F)F)c1 (stereo not drawn)
→ 2, 399
- Cc1ccccc1-c1nc(OCC(C)C)nn1-c1ccc(NC(=O)c2cc(Cl)cc(Cl)c2)cc1
→ 15, 14
- CCC(C(=O)Nc1cc(C)on1)N1CCCC(c2nc3ccccc3o2)C1 (stereo not drawn)
→ 7, 7
- CN(CC1COc2ccccc2O1)C(=O)CN1C(=O)c2ccccc2S1(=O)=O (stereo not drawn)
→ 2, 5
- Cc1ccc(F)cc1NC(=O)c1nnc2ccccc2c1N
→ 4, 0
- CC(OCC1CC1)C(=O)N1CCC(N(C)S(C)(=O)=O)CC1 (stereo not drawn)
→ 1, -2
- CCN(CCO)c1nc(Nc2cc(C)cc(C)c2)c2cnn(-c3ccccc3)c2n1
→ 0, -3
- CCNC(C(=O)O)c1cc(Cl)cc(Cl)c1 (stereo not drawn)
→ 4, 3
- CCCC(NC(=O)Cn1cccn1)C(=O)N1CCc2sccc2C1 (stereo not drawn)
→ 2, 4
- O=C(COc1cccnc1)NCc1cccnc1N1CCc2ccccc2C1
→ -1, -1
- CC1(C(=O)NC2CCN(Cc3ccccc3)CC2)CCN1Cc1cc2ccccc2o1 (stereo not drawn)
→ 8, 0
- Cc1ccc(CN2CCC(CN(C)Cc3ccc4nonc4c3)CC2)o1
→ 2, 1
- COCCC(=O)Nc1ccc2c(c1)CN(Cc1cc(Cl)c(OC)c(OC)c1)CC2
→ 9, 2
- C/C=C\Cn1c(C(=O)N2CCN(S(=O)(=O)c3ccc(C)cc3)C(C)C2)cc2ccsc21 (stereo not drawn)
→ -1, 1
- C#CCNc1cc(Cl)ccc1Cl
→ 6, 9
- CC1=NC2=C(C(=O)CCC2)C(c2ccc(-c3ccccc3)cc2)C1C#N (stereo not drawn)
→ 0, 0
- O=C(Nc1nnc(C2CC(=O)N(c3ccccc3)C2)o1)C1=COCCO1 (stereo not drawn)
→ 3, 0
- CCC(=O)N1CCCC1(C)C(=O)Nc1ccc2c(c1)CCN2C(C)=O (stereo not drawn)
→ -1, -3
- Cc1ccc(C2=NOC(CN(Cc3cccc(Cl)c3)C(=O)c3ccco3)C2)cc1 (stereo not drawn)
→ -22, -19
- COc1ccc(NC(=O)CN2C(=O)C(Oc3ccccc3)C2c2cccnc2)cn1 (stereo not drawn)
→ 16, 16
- CN(CCCC(=O)Nc1ccc(Cl)c(Cl)c1)S(=O)(=O)c1cccs1
→ 0, 17
- CCCNC(=O)NNC(=O)C12CC3CC(CC(C3)C1)C2
→ 10, 9
- Cc1[nH]nc(-c2ccc(OCCN3CCOCC3)cc2O)c1-c1ccc(Cl)cc1
→ -5, -5
- COc1ccc(-c2noc(CN3CCCC(c4ccccc4)CC3)n2)c(OC)c1OC (stereo not drawn)
→ -8, -8
- Cc1ccc2cccc(S(=O)(=O)N(C)CC3CCN(C)CC3)c2n1
→ 4, 4
- CC1CCN(c2ccc(S(C)(=O)=O)cc2[N+](=O)[O-])CC1
→ -7, -8
- CN1C[C@H](NC(=O)COCC(F)(F)C(F)F)C[C@H]1CO
→ -1, -9
- COc1ccc(OC)c(S(=O)(=O)Nc2ccncc2)c1
→ 3, 1
- O=C(NCc1ccc2c(c1)OCCO2)N1CCCC1c1ccsc1 (stereo not drawn)
→ 2, 0
- CCCc1c(C)nn(-c2ccc(C(=O)N(C)C(c3ccccc3)c3ccccc3)cc2)c1C
→ -3, -10
- Cc1ccc(-n2nc(C(=O)N(C)C3CCCCC3)c(=O)n(Cc3cccc(C(F)(F)F)c3)c2=O)cc1
→ 15, 18
- Cc1cccc(-c2nc3ccc(Cl)cn3c2NC(C)(C)CC(C)(C)C)n1
→ -8, -7
- Fc1ccc(Nc2cc3[nH]c(-c4ccccc4)cc3cn2)cc1
→ 9, 25
- O=C(c1cn[nH]n1)N1C[C@@H]2C[C@H]1CN2Cc1ccccc1
→ 4, 2
- C[C@H](C(=O)NCc1nccs1)N1Cc2ccc(-c3cccnc3)nc2C1=O
→ 11, 21
- O=C(NCc1ccncc1)C(C1CCCC1)N1CCN(C(=O)c2cccc([N+](=O)[O-])c2)CC1 (stereo not drawn)
→ -3, 2
- O=C(C1CCS(=O)(=O)CC1)N1CCC(c2ccnc(-c3ccccc3)c2)C1 (stereo not drawn)
→ 9, 8

The list goes on (four carried over from the part before).
Under each structure: NPYLR7 agonist, NPYLR7 agonist max-min
- O=C(c1cn[nH]n1)N1C[C@@H]2C[C@H]1CN2Cc1ccccc1
→ 4, 2
- C[C@H](C(=O)NCc1nccs1)N1Cc2ccc(-c3cccnc3)nc2C1=O
→ 11, 21
- O=C(NCc1ccncc1)C(C1CCCC1)N1CCN(C(=O)c2cccc([N+](=O)[O-])c2)CC1 (stereo not drawn)
→ -3, 2
- O=C(C1CCS(=O)(=O)CC1)N1CCC(c2ccnc(-c3ccccc3)c2)C1 (stereo not drawn)
→ 9, 8
- CC(C)CC(=O)N1CCN(Cc2ccc(-c3ccccc3C#N)cc2)CC1
→ 4, 4
- CCC(C(=O)Nc1cccc(C2SCC(=O)N2c2ccc(C(F)(F)F)cc2)c1)c1ccccc1 (stereo not drawn)
→ 4, 5
- O=C(c1cn[nH]c1-n1cnnn1)N1CCCC(CCc2ccc(F)cc2)C1 (stereo not drawn)
→ 23, 14
- CCCn1ncc(C(=O)N2CCC(c3nc(C(C)C)no3)CC2)c1C
→ 3, -1
- CCOc1ccc(N2C(N)=NC(N)=NC2(C)C)cc1
→ 22, 20
